Compound activity: PubChem, several laboratories
Mtb growth: M. tuberculosis H37Rv growth inhibitors, H37Rv strain (AID 1626) | one-dose inhibition, % at 10 µM; IC50 in µM for titrated hits | 0.95% of 220,000 active | M. tuberculosis H37Rv growth inhibition; higher % means a stronger effect;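 active = confirmed in a dose series; inconclusive = inhibition above 80% but not taken into the dose series; inactive = below 80% or under 30% at every dose of the series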;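 also: bacteria incubated seven days before Alamar blue readout; 0% = bacteria only wells and 100% = bacteria with antibiotic wells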
Arbovirus anti: arbovirus infection inhibition. arbovirus infection cell-based antiviral screen. inhibition, % at 10 µM. 0.37% of 200,000 active. AID 1251;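 active = inhibition from about 30%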;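 also: bluetongue infection of BSR cells; cell survival read as ATP light after 72 h; 0% = infected wells without compound and 100% = uninfected wells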
Mtb betalactam: beta-lactam sensitization of Mtb H37Rv | inhibition, % at 25 µM | 0.27% of 330,000 active | M. tuberculosis H37Rv growth with meropenem, percent inhibition; hits of this screen are not shown here;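 active = about 74% or more and at least 40 points above the plate without the antibiotic, then above 30% in a dose series; inconclusive = first-round hits that could not be retested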;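 also: growth measured after seven days incubation then overnight dye step; 0% = bacteria only wells and 100% = bacteria with antibiotic; twin plates without the antibiotic show which effects depend on it; some results filed as inactive read as strong as hits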
YopH PTP inh: blocks Yersinia enterocolitica YopH tyrosine phosphatase. fluorescence Ex485/Em525. inhibition, %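 (about 10 µM by stock and volumes)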. 0.16% of 140,000 active. AID 898;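 active = inhibition of 50% or more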;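 also: controls were vehicle for no effect and minimum signal wells for full effect; inactives centre near -20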
RecA intein inh: blocks M. tuberculosis RecA intein splicing. P9WHJ3. cell-free RecA intein splicing, fluorescence. inhibition, %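 (about 9 µM by stock and volumes)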. 0.75% of 290,000 active; in the data active = inhibition above about 30%; inconclusive = no clear call, values can overlap the other calls;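 also: 0% = vehicle wells and 100% = reference inhibitor control wells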
Target sequence (P9WHJ3 whole entry, looked up): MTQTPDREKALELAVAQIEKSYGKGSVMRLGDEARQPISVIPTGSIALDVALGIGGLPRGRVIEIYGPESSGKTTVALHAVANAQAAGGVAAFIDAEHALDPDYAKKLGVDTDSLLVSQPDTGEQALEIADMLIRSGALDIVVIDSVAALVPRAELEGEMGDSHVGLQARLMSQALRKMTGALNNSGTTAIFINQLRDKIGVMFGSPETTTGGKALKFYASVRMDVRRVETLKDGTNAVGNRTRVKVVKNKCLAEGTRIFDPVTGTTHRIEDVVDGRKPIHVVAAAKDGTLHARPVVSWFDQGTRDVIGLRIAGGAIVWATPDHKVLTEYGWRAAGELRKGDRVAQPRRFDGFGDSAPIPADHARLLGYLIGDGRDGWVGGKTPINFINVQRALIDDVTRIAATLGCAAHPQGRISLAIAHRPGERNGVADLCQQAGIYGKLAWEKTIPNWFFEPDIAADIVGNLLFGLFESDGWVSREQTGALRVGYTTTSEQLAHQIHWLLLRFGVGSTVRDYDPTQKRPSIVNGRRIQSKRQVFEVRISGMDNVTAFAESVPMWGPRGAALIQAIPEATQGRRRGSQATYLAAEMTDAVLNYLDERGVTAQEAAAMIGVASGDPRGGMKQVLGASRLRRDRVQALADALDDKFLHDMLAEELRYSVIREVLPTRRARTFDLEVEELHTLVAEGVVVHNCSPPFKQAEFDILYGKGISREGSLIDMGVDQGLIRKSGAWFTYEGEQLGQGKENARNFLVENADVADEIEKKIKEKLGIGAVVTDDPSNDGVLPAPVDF
Arbovirus anti repeat: second read-out of Arbovirus anti, no call of its own (marks repeat the call); inhibition, %; measured here: 10K subset replicate screen; many hits read low in the repeat;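 first of two repeat runs on a subset; 0% = infected and 100% = uninfected wells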
Starred values were filed as active, the others as inactive; i = inactive; ? = inconclusive; · = no result given; & = joins results of further samples. These rows are one share of the data; the hit share may differ from the screen's.

SMILES	Mtb growth	Arbovirus anti	Mtb betalactam	YopH PTP inh	RecA intein inh	others
Cc1c2c(n3c(nc4ccccc43)c1C#N)N(CCN(C)C)CC2	1%	7	-2	·	i
COCc1ccc(C(=O)Nc2ccc(C(=O)O)cc2)o1	0%	·	-2	·	0.1
Nc1ccc2nc(C3CCCCC3)[nH]c2c1	-5%	-17	-3	·	5.1
COC(=O)C1(CC2CC(c3ccncc3)=NO2)CCN(C(=O)OC(C)(C)C)CC1 (stereo unspecified)	·	·	0	·	1.3
Cc1cc2[nH]c(=O)c(=O)[nH]c2cc1S(=O)(=O)N1CCN(c2cccc(Cl)c2)CC1	·	·	?	·	1.7
CCOc1ccc(NC(=S)N(CCc2c(C)[nH]c3ccc(C)cc23)Cc2ccncc2)cc1	·	5	79	-30	7.4
CC(c1ccon1)N(C)Cc1cn(C)nc1-c1ccc2c(c1)OCCO2 (stereo unspecified)	3%	·	-6	·	0.7
COC(=O)[C@H](C)NC(=O)Nc1cccc(Br)c1	-5%	·	-2	·	2.1
COCC(=O)Nc1ccc(-c2cn3cccnc3n2)cc1	-7%	10	-19	-50	-5.2
CCCn1c(SCC(=O)NCc2cccs2)nc2c1c(=O)n(C)c(=O)n2C	-7%	-4	-3	-40	-1.4
CC1=CC(=NOC(=O)c2cccc([N+](=O)[O-])c2)C=C(C)C1=O	-10%	-22	1	-21	9.0
CCC(=O)N1CCc2cc(S(=O)(=O)NCCN3CCC(C)CC3)ccc21	-8%	0	2	10	-1.4
CS(=O)(=O)N1N=C(c2ccc(Cl)cc2)CC1c1cccs1 (stereo unspecified)	-4%	5	-9	-16	·
CCOC(=O)c1sc(S(C)(=O)=O)c2c1CCc1conc1-2	-12%	·	-4	·	3.9
COc1ccc(C2NC(=O)NC(O)(C(F)(F)F)C2C(=O)c2ccccc2)cc1OC (stereo unspecified)	-1%	5	-1	-21	0.1
CC(C)[C@H](NC(N)=O)C(=O)Nc1ccc2c(c1)CCC2	-10%	6	-7	-12	1.6
CC(=O)N1c2ccc(S(=O)(=O)NCCC(=O)Nc3ccccc3C)cc2CC1C (stereo unspecified)	·	·	2	·	0.6
CCCCn1nnc(NC(=O)c2cc3ccccc3o2)n1	6%	5	92	-23	·
CCc1c(C2(O)CCCCC2)[nH]c2c(C(=O)OC)cc(Cl)cc12	·	·	26	·	0.9
CC(=O)NC(CCS(C)(=O)=O)C(=O)Nc1nccs1 (stereo unspecified)	-5%	4	-11	-48	-0.6
Cc1ccnn1CC(=O)N/N=C/c1cccs1	-3%	7	-5	-25	1.0
COC(=O)c1sccc1NC(=O)CN(C)NS(=O)(=O)c1ccc([N+](=O)[O-])cc1	-1%	0	-3	-38	-0.9
O=C(CCCC(=O)N(CC(=O)NC1CCCC1)Cc1ccccc1)Nc1ccccn1	-2%	4	-14	-52	-0.5
COC(=O)c1ccc(Oc2c(C(F)(F)F)oc3c(CN4CCN(C)CC4)c(O)ccc3c2=O)cc1	-11%	15	-19	-30	-9.3
CSc1ccc(/C=N\NC(=O)CNc2ccc(C)cc2)cc1	-3%	15	6	-44	0.4
CN(C)c1ccnc(-n2cccc2/C=N/OCc2cccc(F)c2)c1C#N	2%	7	6	2	2.4
O=C(NN=C1CCCCCC1)c1cccs1	·	·	3	·	0.9
COc1ccc(Cn2nnnc2C(c2cc3ccc(OC)cc3[nH]c2=O)N2CCCCCC2)cc1 (stereo unspecified)	2%	7	-15	-33	-4.1
Cc1cccc(NC(=O)C2CCCC2)c1	-8%	2	2	-1	1.1
O=C(CSc1nncc(=O)[nH]1)Nc1cccc([N+](=O)[O-])c1	·	·	76	·	3.2
CN(C(=O)c1cncc(Br)c1)c1c(N)n(Cc2ccccc2)c(=O)[nH]c1=O	·	·	-10	·	-0.3
O=C(CNC(=O)c1ccc(Br)o1)NNC(=O)c1cccc(Cl)c1	·	·	-6	·	0.6
NC(=O)c1cnccn1	-8%	9	-3	-27	-1.3
O=C(COc1ccccc1[N+](=O)[O-])N1CCN(C(=O)c2ccco2)CC1	·	·	?	·	1.6
Nc1[nH]c(=O)ncc1F	-4%&6%	20&4	3	-57	-0.1
CCOC(=O)NC(Nc1sc2c(c1C(=O)OC)CCN(C)C2)(C(F)(F)F)C(F)(F)F	-11%	9	1	-40	-8.4
COc1ccc(C(=O)NCCS(=O)(=O)NCc2ccccc2OC)cc1	·	·	-4	·	0.5
CCOc1ccc(NC(=O)Cc2c(C(=O)O)n(C)c3ccccc23)cc1	·	·	2	·	-0.8
CCN(CC)CCCNC(=O)c1cn(C)c(=O)c2c1c1ccccc1n2C	·	·	5	·	-4.5
CC1(C)Cc2c(cnn2-c2cccc(F)c2)C(NC(=O)CCc2cnccn2)C1 (stereo unspecified)	·	·	2	·	2.4

Sorted by number of heavy atoms (low to high): some entries from above
SMILES	Mtb growth	Arbovirus anti	Mtb betalactam	YopH PTP inh	RecA intein inh	others
Nc1[nH]c(=O)ncc1F	-4%&6%	20&4	3	-57	-0.1
Cc1cccc(NC(=O)C2CCCC2)c1	-8%	2	2	-1	1.1
Nc1ccc2nc(C3CCCCC3)[nH]c2c1	-5%	-17	-3	·	5.1
Cc1ccnn1CC(=O)N/N=C/c1cccs1	-3%	7	-5	-25	1.0
CC(=O)NC(CCS(C)(=O)=O)C(=O)Nc1nccs1 (stereo unspecified)	-5%	4	-11	-48	-0.6
COCc1ccc(C(=O)Nc2ccc(C(=O)O)cc2)o1	0%	·	-2	·	0.1
CS(=O)(=O)N1N=C(c2ccc(Cl)cc2)CC1c1cccs1 (stereo unspecified)	-4%	5	-9	-16	·
CC1=CC(=NOC(=O)c2cccc([N+](=O)[O-])c2)C=C(C)C1=O	-10%	-22	1	-21	9.0
O=C(CNC(=O)c1ccc(Br)o1)NNC(=O)c1cccc(Cl)c1	·	·	-6	·	0.6
Cc1c2c(n3c(nc4ccccc43)c1C#N)N(CCN(C)C)CC2	1%	7	-2	·	i
CC(c1ccon1)N(C)Cc1cn(C)nc1-c1ccc2c(c1)OCCO2 (stereo unspecified)	3%	·	-6	·	0.7
CCN(CC)CCCNC(=O)c1cn(C)c(=O)c2c1c1ccccc1n2C	·	·	5	·	-4.5
COC(=O)c1sccc1NC(=O)CN(C)NS(=O)(=O)c1ccc([N+](=O)[O-])cc1	-1%	0	-3	-38	-0.9
Cc1cc2[nH]c(=O)c(=O)[nH]c2cc1S(=O)(=O)N1CCN(c2cccc(Cl)c2)CC1	·	·	?	·	1.7
CCOC(=O)NC(Nc1sc2c(c1C(=O)OC)CCN(C)C2)(C(F)(F)F)C(F)(F)F	-11%	9	1	-40	-8.4
O=C(CCCC(=O)N(CC(=O)NC1CCCC1)Cc1ccccc1)Nc1ccccn1	-2%	4	-14	-52	-0.5
COc1ccc(Cn2nnnc2C(c2cc3ccc(OC)cc3[nH]c2=O)N2CCCCCC2)cc1 (stereo unspecified)	2%	7	-15	-33	-4.1

(listing goes on)
SMILES	Mtb growth	Arbovirus anti	Mtb betalactam	YopH PTP inh	RecA intein inh	others
NC(=O)CSC1=Nc2ccccc2C2=NC(c3ccccc3)C(=O)N12 (stereo unspecified)	-2%	7	-6	·	-0.6
O=C(NNS(=O)(=O)c1ccc(F)cc1)c1ccc([N+](=O)[O-])cc1Cl	·	·	2	·	-2.7
CCOc1cccc(-c2nnc3sc(COc4ccc(C)cc4)nn23)c1	15%	7	5	-28	1.8
CC(=O)Oc1ccc2oc(/C=C/N(C)C)c([N+](=O)[O-])c2c1	-1%	5	3	-17	1.5
CC(=NCCc1c(C)[nH]c2ccc(OCc3ccccc3)cc12)C1=C(O)CC(c2ccccc2)CC1=O (stereo unspecified)	3%	11	2	·	1.0
CC(C)S(=O)(=O)c1cnc(N2CCOCC2)nc1N	-7%	·	-8	·	-5.0
Cc1oc2ccc(OCc3c(F)cccc3Cl)cc2c1C(=O)O	9%	·	13	·	1.0
CC1CN(C)C(C)c2c1oc1ccc([N+](=O)[O-])cc21 (stereo unspecified)	0%	-12	52	·	0.2
O=C1COc2ccc(N3C(=O)C=CC3=O)cc2N1	-5%	0	-5	·	6.1
COc1ccc(CNc2ccc([N+](=O)[O-])cc2C)cc1	12%	·	5	·	2.8
CN(C)C(=O)NC(O)C(Cl)Cl (stereo unspecified)	1%	8	1	-9	3.4
Cn1c(COc2ccc(Cl)cc2)nnc1SCC(=O)Nc1ccc2c(c1)CCC2	60%	-6	?	-17	-1.3
COc1cc(C(=O)N/N=C(\c2ccccc2)c2ccccn2)cc(OC)c1OC	?	-42	98	1	2.8
Cc1ccc(Nc2nc(N)nc(CSc3nnc(-c4ccncc4)o3)n2)cc1	-2%	3	29	-30	·
COc1ccccc1OCC(O)CN1C(=O)NC(C)(C)C1=O (stereo unspecified)	-7%	2	3	-4	1.8	Arbovirus anti repeat=-4
Cn1c(=O)oc2cc(S(=O)(=O)N3CCCC(C(=O)NCc4cccs4)C3)ccc21 (stereo unspecified)	3%	12	-1	14	-5.2	Arbovirus anti repeat=-3
Nc1c(Cl)c(Cl)nc(C(=O)N/N=C/c2cccnc2)c1Cl	-18%	·	-11	·	1.3
CC1(C)Cc2ccccc2-c2nc3n(c(=O)c21)CCS3	-6%	1	-5	·	2.6
CCCOC(=O)/C(=C\C=C\c1ccco1)NC(=O)c1ccccc1	4%	-1	4	·	3.1
CCS(=O)(=O)N1CCC(C(=O)NC2CCCCCCC2)CC1	-6%	-3	-1	1	0.6
COc1ccc(CCNCc2cccn2C)cc1	·	·	-8	·	1.9
COc1ccc(/C=C/c2cc(-c3ccc(C)cc3)o[n+]2C)cc1	3.2µM*	-29	100	-21	1.4
CN(C)/C(=N\S(=O)(=O)c1ccc(Br)cc1)c1ccccc1	·	·	-4	·	-0.8
COc1ccc(C(=O)N/N=c2\oc3ccccc3cc2C(N)=O)cc1	-8%	-4	0	·	0.2
CCCN1CCN(CCCNC(=O)c2cc3c(s2)-c2ccccc2OC3)CC1	·	·	2	·	-17
FC(F)(F)c1cnc(N/N=C/c2ccncc2)c(Cl)c1	2%	·	-3	·	-0.4
COc1ccccc1C(=O)NC1CCN(C(=O)Nc2ccc(C)cc2)CC1	·	·	0	·	-2.0
CSC1=N/C(=C/c2ccc(-n3cncn3)cc2)C(=O)N1	9%	·	31	·	-2.6
C=CCn1c(Cc2ccc(OC)cc2)nnc1SCC(N)=O	-2%	3	-2	-18	-7.4
CC1CCCCC1NC(=O)c1cc2c(=O)n3ccccc3nc2n1C (stereo unspecified)	·	·	3	·	i
O=C1CNC(=O)/C1=C/c1ccc(Br)cc1	-3%	·	-3	·	0.8
N#CCCN(C(=O)COC(=O)c1cc(S(=O)(=O)N2CCOCC2)ccc1Cl)c1ccc(F)cc1	·	·	2	·	1.0
COc1ccc(/C=C2\SC(=S)N(CC(=O)NC3CCS(=O)(=O)C3)C2=O)cc1 (stereo unspecified)	·	·	-7	·	3.5
O=C1CC(c2ccccc2)CC2=C1C=Nc1ccccc1N2 (stereo unspecified)	2%	-9	3	·	8.7
CCOC(=O)/C=C1\NC(=O)CS1	1%	3	-22	-7	-1.8
Cc1ccc(NC(=O)CSc2nnc(-c3cnccn3)n2Cc2ccco2)cc1	-3%	-7	-9	-24	-0.4
O=C(OCCCOc1ccc(F)cc1)c1ccc(O)cc1O	·	·	0	·	9.1
O=C1OC(c2ccccc2)c2ccccc21 (stereo unspecified)	0%	6	-3	-41	0.3
CCOC(=O)c1c(NC(C)=O)sc2c(OC(C)=O)cccc12	-7%	8	3	-19	2.0
Oc1ccccc1Cn1nnc2ccccc21	·	·	7	·	0.5
Cc1cc2nc(C)c(=O)n(C)c2cc1C	-1%	5	-4	-18	-1.7
O=C(NCCCCCCNC(=O)c1ccc(Br)s1)c1ccc(Br)s1	0%	-3	4	-24	1.1
O=C(CCCN1C(=O)c2cccc3cccc(c23)C1=O)NC1CCS(=O)(=O)C1 (stereo unspecified)	-12%	0	-7	·	-1.6
CC(C)CNc1nnnc2c1sc1nc(N3CCOCC3)c3c(c12)CC(C)(C)SC3	10%	-25	96	-43	4.2
C=CCc1cccc2cc(C(=O)OCC(=O)c3ccccc3)c(=O)oc12	18%	-2	90	-10	-0.8
O=C(CN1CCOCC1)Nc1ccccc1-c1ccccc1	-14%	-13	-6	-16	0.3
COc1cccc(-n2c(N)cc(=O)nc2SCC(=O)N2CCN(c3ccccc3)CC2)c1	·	·	-13	·	0.3
C=C(C)c1cccc(C(C)(C)NC(=O)N(Cc2ccccc2)Cc2ccco2)c1	·	-7	-8	-15	-0.2
O=C(COC(=O)C1CC1)Nc1ncc(C(F)(F)F)cc1Cl	0%	22	21	·	4.1
Cc1nc([N+](=O)[O-])c(Br)n1CC(=O)c1ccc(Br)cc1	19%	-37	100	-27	-3.7
